Bioassay records as filed in PubChem.
CDC25B CDK2 inh: human CDC25B-CDK2/CyclinA binding inhibition. P30305+P24941. HTRF CDC25B-CDK2/CyclinA binding, anti-His/anti-Flag; hits give high values. z-score (concentration not given with the values). 0.72% of 94,000 active. AID 1259370;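 also: score is relative to mean and SD of negative controls; strong numbers were not always called active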
TAR Tat displ: HIV-1 TAR-Tat binding disruption | HIV-1 TAR RNA, Tat peptide displacement FRET; hits give high values | z-score (concentration not given with the values) | 0.6% of 100,000 active;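 also: score is relative to mean and SD of negative controls; some compounds called inactive have numbers as strong as hits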
An asterisk follows results filed as active; nt = no result given.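 The calls were made as follows: active = z-score from 3 up in half or more of its runs; inactive = the rest.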

entry	compound	CDC25B CDK2 inh	TAR Tat displ
1	Cc1ccc(-n2cc3c(c(C(=O)O)c2=O)CC(C)(C)CC3=O)cc1	-0.16	0.12
2	CCSc1sccc1C1C(C#N)=C(N)N(c2cccnc2)C2=C1C(=O)CC(c1ccccc1)C2 (configuration not stated)	15	-3.2
3	O=C(Nc1cccc(Cl)c1)c1c(O)c2c([nH]c1=O)CCCC2	nt	1.8
4	CC1(C)CC(n2c(=O)c3cc4c(=O)n(C5CC(C)(C)NC(C)(C)C5)c(=O)c4cc3c2=O)CC(C)(C)N1	-1.1	nt
5	CCOc1ccc(N(C)S(=O)(=O)c2cc(C(=O)OC)n(C)c2)cc1	nt	0.94
6	CCCCOC(=O)Nc1nnc(C)s1	-1.7	0.92
7	CCOC(=O)CC1=CC(=S)Nc2ccccc2N1	0.16	1.3
8	Cc1csc2nc(CSc3nc(-c4ccccc4)nc4cc(=O)[nH]n34)cc(=O)n12	nt	-0.8
9	COCCCNc1nc(-c2ccc(Cl)cc2)nc2ccccc12	-1.2	nt
10	Cc1nnc(N(C)C)c2c1nnn2Cc1ccccc1Cl	0.26	-0.69
11	COc1ccc(-c2csc3nc4ccccc4n23)cc1	1.2	0.24
12	O=C(NCc1ccc2c(c1)OCO2)C1CCN(C(=O)c2ccc3c(c2)nnn3C2CCCC2)CC1	nt	0.67
13	Cc1ccc(S(=O)(=O)Nc2ccccc2C(=O)Nc2cccc3c2C(=O)c2ccccc2C3=O)cc1	-4.3	nt
14	Nc1nc2n(n1)C(c1cccc(Cl)c1)CC(c1ccc(F)cc1)N2 (configuration not stated)	-1.2	-0.77
15	COc1cccc(-c2nc(-c3cc4ccccc4[nH]c3=O)no2)c1	-4.1	0.72
16	O=C(CSc1nnc2scc(-c3ccc(Cl)cc3)n12)Nc1nsc(-c2ccccc2)n1	-0.63	nt
17	COc1ccc(-c2cc(C(=O)O)c3ccccc3n2)c(OC)c1	-0.69	0.31
18	Cc1nn(CC(=O)c2ccc(Br)cc2)c(C)c1Cc1ccccc1	-2	1.2
19	O=C(CC1Oc2ccc(Cl)cc2NC1=O)NC1CCCC1 (configuration not stated)	-2	-0.62
20	O=C(CN1C(=O)c2ccccc2S1(=O)=O)Nc1ccc(O)cc1	-0.15	1.1
21	CC1CCN(CCNC(=O)C2CCCN(S(=O)(=O)c3ccc4c(c3)oc(=O)n4C)C2)CC1 (configuration not stated)	-0.66	0.65
22	Cc1n[nH]c(=O)nc1NCc1ccco1	-0.03	-1
23	Cn1c(C(=O)N2CCCC(C(=O)NC3CC3)C2)cc2sccc21 (configuration not stated)	-0.73	nt
24	OCC1=C[C@@H](O)[C@@H]2C=CO[C@@H](OC3O[C@H](CO)[C@@H](O)[C@H](O)[C@H]3O)[C@H]12 (some centres not stated)	nt	2.5
25	Oc1ccc2ccccc2c1N=Nc1c(Br)cc(Br)cc1-c1nn[nH]n1	3.2	nt

5 records picked at random from those above:
entry	compound	CDC25B CDK2 inh	TAR Tat displ
14	Nc1nc2n(n1)C(c1cccc(Cl)c1)CC(c1ccc(F)cc1)N2 (configuration not stated)	-1.2	-0.77
1	Cc1ccc(-n2cc3c(c(C(=O)O)c2=O)CC(C)(C)CC3=O)cc1	-0.16	0.12
12	O=C(NCc1ccc2c(c1)OCO2)C1CCN(C(=O)c2ccc3c(c2)nnn3C2CCCC2)CC1	nt	0.67
9	COCCCNc1nc(-c2ccc(Cl)cc2)nc2ccccc12	-1.2	nt
6	CCCCOC(=O)Nc1nnc(C)s1	-1.7	0.92

Three entries from above, with each value named:
[12] O=C(NCc1ccc2c(c1)OCO2)C1CCN(C(=O)c2ccc3c(c2)nnn3C2CCCC2)CC1
  CDC25B CDK2 inh: nt | TAR Tat displ: 0.67

[13] Cc1ccc(S(=O)(=O)Nc2ccccc2C(=O)Nc2cccc3c2C(=O)c2ccccc2C3=O)cc1
  CDC25B CDK2 inh: -4.3 | TAR Tat displ: nt

[14] Nc1nc2n(n1)C(c1cccc(Cl)c1)CC(c1ccc(F)cc1)N2 (configuration not stated)
  CDC25B CDK2 inh: -1.2 | TAR Tat displ: -0.77

Remaining list, next part.
entry	compound	CDC25B CDK2 inh	TAR Tat displ
26	Cc1nn(C)c(C)c1NC(=O)c1c([N+](=O)[O-])cnn1C	-0.89	-0.55
27	CC(C)(C)c1ccc(-c2nc(NC(=O)CSc3nnc4ccccn34)ns2)cc1	0.09	0.98
28	O=c1cc(CN2CCOCC2)nc2nc(-c3ccccc3)[nH]n12	0.22	-1.2
29	CC(=O)N1CCOc2ccc(S(=O)(=O)N3c4ccccc4CC3C)cc21 (configuration not stated)	-0.32	0.28
30	CC(NC(=O)c1ccc2c(c1)OCO2)C(c1cccs1)N1CCOCC1 (configuration not stated)	-0.41	nt
31	COc1cc(C2c3c(-c4ccccc4O)n[nH]c3C(=O)N2CCO)ccc1OCc1ccccc1 (configuration not stated)	-1.1	0.91
32	CC1CCN(S(=O)(=O)c2ccc3c(c2)C(C)(C)C(=O)N3C)CC1	nt	1.2
33	Cc1ccc(S(=O)(=O)NNC(=S)Nc2ccc3c(c2)OCCO3)cc1	-1.5	nt
34	CC(NC(=O)Nc1ccc(F)c(Cl)c1)c1c(-n2cccc2)sc2c1CCCC2 (configuration not stated)	-0.53	-0.23
35	CN(C)c1ccc(NC(=O)C(=O)NCCO)cc1	-6.2	1.1
36	CCCCC1=NN(C(=O)COc2cc(C)cc(C)c2)C(O)(C(F)(F)F)C1 (configuration not stated)	-0.84	nt
37	Cc1ccsc1CCNC(=O)C1CCCN(S(=O)(=O)c2ccc3[nH]c(=O)oc3c2)C1 (configuration not stated)	nt	-0.66
38	O=c1c2ccccc2nc2ccccn12	-1.9	nt
39	O=C(C1CCCN(S(=O)(=O)N2CCOCC2)C1)N1CCN(c2ccccc2)CC1 (configuration not stated)	nt	2.6
40	O=c1c2c(nc(NCCCO)n1-c1ccccc1)-c1ccccc1CC21CCCC1	-0.64	-0.02
41	CN(C)c1nc2c(c(=O)n(C)c(=O)n2C)n1C	-1.1	nt
42	CCCCN(C)CCNC(=O)c1cc2ccc3cccnc3c2[nH]1	nt	1.8
43	COCCn1c2c(c(=O)[nH]c1=O)C(c1cccc3ccccc13)C1=C(N2)c2ccccc2C1=O (configuration not stated)	-1.8	-5.6
44	CCCSc1nnc(NC(=O)c2nn(-c3ccccc3)ccc2=O)s1	-0.58	0.9
45	COc1ccc(-c2cc3ncc4c(n3n2)-c2cc(F)ccc2OC4)cc1	1.1	2.1
46	C=CCOc1ccc(C2C3=C(CC(C)(C)CC3=O)NC3=C2C(=O)CC(C)(C)C3)cc1	-0.83	-0.05
47	O=C(CCCN1CCSc2ccccc21)Nc1ccc(Br)cc1	nt	0.98
48	CC(SCc1nc2ccccc2[nH]1)c1ccccc1 (configuration not stated)	-0.64	2.7
49	O=C1c2[nH]nc(-c3ccccc3O)c2C(c2cccc(O)c2)N1CCCO (configuration not stated)	-1.5	2.4
50	O=C(Nc1ccc(F)c(Cl)c1)N1CCC(CN2CCCCC2)CC1	nt	1.6

More records:
entry	compound	CDC25B CDK2 inh	TAR Tat displ
51	O=S(=O)(c1ccccc1)c1cnc2ccccc2c1NCc1ccccc1	2.5	0.56
52	COc1cc2ncnc(NNS(=O)(=O)c3cc(C)c(Cl)cc3C)c2cc1OC	-1.2	nt
53	CCOC(=O)c1nc(N2CCN(C(=O)OCC)CC2)c2c3c(sc2n1)CCCC3	-0.6	1.7
54	C=CCOc1cc2oc(=O)cc(C)c2cc1CC	-0.94	nt
55	CC(C)Oc1cccc(C2C=C(C(=O)O)Nc3ncnn32)c1 (configuration not stated)	-1.6	0.53
56	CC(C)Nc1nc(-c2ccccc2)no1	nt	1.3
57	Cc1nn(-c2nc3ccccc3o2)c2c1C(c1ccc(F)c(Br)c1)CC(=O)N2 (configuration not stated)	nt	0.31
58	CC(C)c1nn2c(=O)cc(COC(=O)c3cccc(F)c3)nc2s1	nt	1.1
59	CCOC(=O)c1c(C)oc(-c2ccc(C)cc2)c1S(=O)(=O)N1CCOCC1	-4.9	nt
60	O=C(NCc1ccc(S(=O)(=O)N2C=CC(C(F)(F)F)=NCC2)s1)c1ccccc1	-1.7	nt
61	O=C(Nc1ccccc1Br)c1ncoc1-c1ccco1	nt	-0.01
62	CSc1ncnc2cn(-c3ccc(C)cc3)nc12	-2.8	0.44
63	CC(=O)N1CCc2c(sc(NC(=O)CS(=O)(=O)c3ccc(Cl)cc3)c2C#N)C1	nt	0.59
64	O=C(Nc1ncc(Cc2ccccc2F)s1)C1=Cc2cc(Br)ccc2OC=C1	-2.2	1.1
65	CC1=C(C(=O)Nc2cc(C(=O)N3CCCC3)ccc2C)SCCO1	nt	0.57
66	O=C(COc1ccccc1)Nc1ccccc1SCc1cc(=O)n2nc(C3CC3)sc2n1	nt	0.75
67	Cc1ccc(-c2nnc3ccc(SCC(=O)N4CCOCC4)nn23)cc1	-0.63	nt
68	O=C(NCCN1CCN(c2cccc(Cl)c2)CC1)NC1COc2ccccc2C1 (configuration not stated)	nt	0.18
69	CC(=O)N1CC(C)Sc2ccc(S(=O)(=O)NCc3ccccn3)cc21 (configuration not stated)	nt	1.5
70	CC(C)(C)c1cc(C(=O)N/N=C/c2cc(Cl)ccc2O)n[nH]1	0.25	nt
71	O=C(Nc1cnc2sccn2c1=O)c1ccccc1Cl	-1.4	-0.16
72	COc1ccc(Cc2nc(COc3cc(C)c(Cl)c(C)c3)no2)cc1OC	0.82	-0.26
73	Cc1ccc(Cl)c(Oc2ncnc3sc(C)cc23)c1	nt	1.4
74	CC1=C(C(=O)Nc2ccc(Cl)cc2)SCCO1	0.2	0.57
75	CS(=O)(=O)c1csc(C(=O)O)c1Cl	0.42	nt

(list continues)
entry	compound	CDC25B CDK2 inh	TAR Tat displ
76	O=S(=O)(Nc1ccccc1Br)c1cccs1	0.19	-0.88
77	Cn1c(SCC(=O)N/N=C/c2cccnc2)nnc1-c1ccncc1	-2.6	nt
78	CCOc1ccc2c(c1)NC(c1ccc(OC)c(OC)c1)=NC(c1ccccc1)=N2	-0.54	-1.3
79	CC1CCN(C(=O)C2CCCN(S(=O)(=O)c3ccc4c(c3)oc(=O)n4C)C2)CC1 (configuration not stated)	0.39	1.1
80	CCSC1=N/C(=C\c2ccc3c(c2)OCO3)C(=O)S1	0.65	0.24
81	CCOC(=O)CNc1ncnc2c1nnn2C	nt	1.7
82	CC1=C(C(N)=O)C(c2ccccc2)n2nc(SCc3ccccc3)nc2N1 (configuration not stated)	1.1	nt
83	COc1ccc(C2=Nc3ccccc3NC(c3ccco3)=N2)cc1	-2.6	-0.68
84	Cc1ccc(NC(=O)CSc2nnc3nc(C)cc(C)n23)cc1	-0.9	nt
85	Cc1ccc(CNC(=O)NCCn2cnc3cc(C(=O)NC4CCCC4)ccc32)cc1	nt	0.45
86	COc1cc(C2OC3=C(C(=O)CC(C)(C)C3)C(N)=C2C#N)ccc1O (configuration not stated)	-0.78	nt
87	Cc1ccc(NC(=O)/C(C#N)=C/c2cc(Br)cs2)cc1Cl	-1.2	nt
88	Cc1ccc(S(=O)(=O)N(C)C)cc1NC(=O)C1CCC1	-0.52	nt
89	NC(=O)C1CCN(C(=O)C2=Cc3ccccc3OC2)CC1	nt	0.6
90	CCCCC(CC)CNS(=O)(=O)c1ccc2c(c1)oc(=O)n2C (configuration not stated)	-0.48	-0.91
91	CS(=O)(=O)c1sc(NC(=O)Nc2ccc(Cl)cc2)c2c1C=CCC2	-0.71	nt
92	O=C(NC1CCCC1)c1cc(-c2cccnc2)nc2ccccc12	nt	-0.5
93	CC1CCC(NC(=O)CCS(=O)(=O)c2ccc3c(c2)CC(C)N3C(=O)C2CC2)CC1 (configuration not stated)	nt	0.52
94	c1ccc(-c2cc3c(N4CCOCC4)ncnc3s2)cc1	-1.3	nt
95	CCN(CC)c1ccc(C2C(C#N)=C(C)NC3=C2C(=O)CCC3)cc1 (configuration not stated)	-0.29	1
96	CSc1nc2c(c(=O)[nH]1)C(c1ccc(Br)cc1)C1=C(CCCC1=O)N2 (configuration not stated)	-1.6	-0.8
97	CC(C)c1nn2c(=O)cc(COC(=O)c3ccc(C(C)(C)C)cc3)nc2s1	nt	1.9
98	CC1(C)Cc2nc3oc4c(N5CCOCC5)ncnc4c3cc2CO1	nt	0.37
99	CCOC(=O)c1c(NC(C)=O)c2c3c(sc2n1CC(=O)N1CCCCC1CC)CCCC3 (configuration not stated)	nt	0.17
100	COC(=O)/C(C#N)=C(\C#N)c1ccc(Br)o1	-1.7	nt

(cont.)
entry	compound	CDC25B CDK2 inh	TAR Tat displ
101	O=C(CCCn1ncn2c(cc3occc32)c1=O)N1CCN(c2ccccn2)CC1	-0.17	nt
102	O=C(Nc1ccccc1SCC(O)CSc1cccs1)c1ccc(Cl)cc1 (configuration not stated)	1.3	nt
103	Cc1nc2c(-c3ccc(Cl)cc3)c(C)nn2c(N)c1-c1ccccc1	-0.74	nt
104	O=C(O)CSCC(=O)N1CCC(n2cccc2)CC1	-2.4	nt
105	CCN(CC)S(=O)(=O)c1ccc(N2CCCCS2(=O)=O)cc1	nt	-0.12
106	Cc1cc(C)nc(NC(=O)c2cc(-c3cccnc3)nc3ccccc23)n1	nt	-1
107	Cc1cccc(NC(=O)NC(=O)c2ccc(C(C)(C)C)s2)n1	-1.2	nt
108	Cc1ccc(C(=O)CSc2nc3ccccc3c(=O)[nH]2)cc1C	-0.13	0.26
109	Cc1nc2n(COCCO)cnn2c(=O)c1Br	-1.1	nt
110	Cc1nn(CC(=O)NCC2CCCO2)c(=O)c2nn(-c3ccccc3)c(C)c12 (configuration not stated)	nt	-2.4
111	O=C(Nc1ccc(Br)c(C(F)(F)F)c1)c1ccc(CN2C(=O)c3ccccc3C2=O)o1	-2.5	nt
